Screens: PubChem, Vanderbilt University
GIRK2 activ = activators of human GIRK2 potassium channels. HEK293-GIRK2 thallium flux, Thallos fluorescence. 0.05% of 63,000 active. calls only for hits at 25 µM. AID 1259325, 2017;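 active = among the strongest 0.2% of first-round signals and kept after retests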;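 note: first round at about 10 µM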
Target sequence (P48051 whole entry, looked up): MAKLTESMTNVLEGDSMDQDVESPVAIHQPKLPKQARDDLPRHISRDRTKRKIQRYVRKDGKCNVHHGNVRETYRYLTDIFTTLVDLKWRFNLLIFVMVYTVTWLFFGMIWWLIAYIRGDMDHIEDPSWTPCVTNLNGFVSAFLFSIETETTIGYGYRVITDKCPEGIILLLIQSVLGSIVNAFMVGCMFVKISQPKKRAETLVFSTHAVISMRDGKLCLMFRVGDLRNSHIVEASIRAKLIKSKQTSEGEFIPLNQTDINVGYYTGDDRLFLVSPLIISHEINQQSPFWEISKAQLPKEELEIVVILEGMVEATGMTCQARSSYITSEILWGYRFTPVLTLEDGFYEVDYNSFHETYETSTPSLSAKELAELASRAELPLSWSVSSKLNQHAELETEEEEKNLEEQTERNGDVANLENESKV
Calls only; i = inactive. The list is partial (hit frequency here may not be typical).

| Structure | GIRK2 activ |
| --- | --- |
| COc1cc(OC)cc(-n2nnc(-c3nc(-c4ccc(Cl)cc4)cs3)c2N)c1 | i |
| COc1ccc(NC(=O)C(=O)NCC(O)(c2ccccc2)C2CC2)cc1 (configuration not stated) | i |
| CCOC(=O)C1CCc2sc(NC(=O)c3c(C)nc4ccccn34)nc21 (configuration not stated) | i |
| CCCc1cc(SCC(=O)Nc2cccc(Cl)c2C)ncn1 | i |
| C=CCn1c(SCCC(=O)NCCc2ccccc2)nc2scc(-c3ccco3)c2c1=O | i |
| O=C(Nc1ccc2c(c1)OCO2)Nc1nc(-c2ccccn2)cs1 | i |
| Cc1cc(C(=O)NCCn2nc(C3CC3)n(-c3ccccc3)c2=O)no1 | i |
| O=C(c1ccc2c(c1)OCO2)N1CCC(CSC2=NCCS2)CC1 | i |
| COc1cccc(CNC(=O)C(=O)NCC2OCCCN2S(=O)(=O)c2ccc(C)cc2)c1 (configuration not stated) | i |
| CS(=O)(=O)NCC1CCN(C(=O)c2ccoc2)CC1 | i |
| O=C(Nc1cnoc1)c1ccccc1C(F)(F)F | i |
| O=C(CSc1nnc(N2CCN(C(=O)Cc3c[nH]c4ccccc34)CC2)s1)Nc1ccccc1 | i |
| O=C(Cn1c(=O)oc2ccccc21)Nc1nnc(C2CC(=O)N(c3ccccc3)C2)o1 (configuration not stated) | i |
| COc1cccc(-c2noc(CSc3nc(C)c(C)c(=O)[nH]3)n2)c1OC | i |
| COc1ccccc1S(=O)(=O)NCC#CCOc1cccc(C(F)(F)F)c1 | i |
| CCCCCNC(=O)c1sc(-c2nnn(-c3ccc(F)cc3)c2C)nc1C | i |
| O=C(NCC1(c2ccc(F)cc2)CCOCC1)Nc1ccc(Cl)c(Cl)c1 | i |
| O=C(CN1CCN(c2ccc3c(c2)OCO3)C1=O)N1CCN(c2ccccc2Cl)CC1 | i |
| CC(=O)Nc1ccc(Nc2c(C(=O)N3CCCCC3C)cnc3nc(C)ccc23)cc1 (configuration not stated) | i |
| O=C(Nc1ccc(F)c(Cl)c1)C1COCC(=O)N1Cc1cccs1 (configuration not stated) | i |
| CC(C)C(=O)Nc1sc2c(c1-c1nc3ccccc3s1)CCN(C(C)C)C2 | i |
| COC(=O)Cn1c(=O)c2c(nc3n2CC(C)CN3CCc2ccccc2)n(C)c1=O (configuration not stated) | i |
| CC(C)(C)CNc1ccccc1 | i |
| C=C(C)COc1ccc(-c2[nH]ncc2-c2ccc(OC)cc2)c(O)c1 | i |
| O=C(c1ccc(Cl)cc1Cl)N1CCN(c2cc(-n3cccc3)ncn2)CC1 | i |
| COc1cccc(C(=O)Nc2ccc3c(c2)CCC(=O)N3CCC(C)C)c1OC | i |
| Cc1nc(N2CCC(C(=O)O)CC2)c2oc3ccccc3c2n1 | i |
| CCc1cccc2sc(N(CC3CCCO3)C(=O)c3cccs3)nc12 (configuration not stated) | i |
| CCc1ccccc1NC(=O)c1ccc(-n2nncc2C)cc1 | i |
| COc1ccc(N2C(=O)C3N=NN(Cc4ccc(F)cc4Cl)C3C2=O)cc1 (configuration not stated) | i |
| CNC(=O)CN1CCC(COCc2cc(OC)cc(OC)c2)CC1 | i |
| Cc1cc(C)cc(-n2nc3c(c2NC(=O)c2ccc(N4C(=O)CCC4=O)cc2)CSC3)c1 | i |
| Nc1c(C(=O)c2cccc(-c3ccc[n+]([O-])c3)c2)cnn1-c1ccc(F)cc1F | i |
| O=C(CSc1ccc(F)cc1)NCC1CCN(Cc2cccs2)CC1 | i |
| O=C(CSc1ccc(F)cc1)NCC#CCN1CCCC1 | i |
| O=C(Nc1ccc2c(c1)CCCN2C(=O)c1cccs1)c1cnccn1 | i |
| O=C(Cc1ccc(F)cc1)NCCCS(=O)(=O)N1CCc2ccccc2C1 | i |
| COc1ccc(OC)c(C(=O)c2oc3cc(NC(=O)C(C)C)ccc3c2C)c1 | i |
| C=CCOCC(O)Cn1c(N2CCCCCC2)nc2c1c(=O)[nH]c(=O)n2C (configuration not stated) | i |
| C=C(C)COc1ccc(-c2[nH]ncc2Oc2cccc(OC)c2)c(O)c1 | i |

Exported with values ahead of the structure: entries from further up
| GIRK2 activ | Structure |
| --- | --- |
| i | CC(C)C(=O)Nc1sc2c(c1-c1nc3ccccc3s1)CCN(C(C)C)C2 |
| i | COC(=O)Cn1c(=O)c2c(nc3n2CC(C)CN3CCc2ccccc2)n(C)c1=O (configuration not stated) |
| i | CC(C)(C)CNc1ccccc1 |
| i | C=C(C)COc1ccc(-c2[nH]ncc2-c2ccc(OC)cc2)c(O)c1 |
| i | O=C(c1ccc(Cl)cc1Cl)N1CCN(c2cc(-n3cccc3)ncn2)CC1 |
| i | COc1cccc(C(=O)Nc2ccc3c(c2)CCC(=O)N3CCC(C)C)c1OC |
| i | Cc1nc(N2CCC(C(=O)O)CC2)c2oc3ccccc3c2n1 |
| i | CCc1cccc2sc(N(CC3CCCO3)C(=O)c3cccs3)nc12 (configuration not stated) |
| i | CCc1ccccc1NC(=O)c1ccc(-n2nncc2C)cc1 |
| i | COc1ccc(N2C(=O)C3N=NN(Cc4ccc(F)cc4Cl)C3C2=O)cc1 (configuration not stated) |
| i | CNC(=O)CN1CCC(COCc2cc(OC)cc(OC)c2)CC1 |
| i | Cc1cc(C)cc(-n2nc3c(c2NC(=O)c2ccc(N4C(=O)CCC4=O)cc2)CSC3)c1 |
| i | Nc1c(C(=O)c2cccc(-c3ccc[n+]([O-])c3)c2)cnn1-c1ccc(F)cc1F |
| i | O=C(CSc1ccc(F)cc1)NCC1CCN(Cc2cccs2)CC1 |
| i | O=C(CSc1ccc(F)cc1)NCC#CCN1CCCC1 |
| i | O=C(Nc1ccc2c(c1)CCCN2C(=O)c1cccs1)c1cnccn1 |

Following part.
| Structure | GIRK2 activ |
| --- | --- |
| NC(=O)C1CCN(C(=O)C2CSCCC(=O)N2)CC1 (configuration not stated) | i |
| COc1ccc(CNC(=O)CSc2nc3c(c(=O)[nH]2)CN(Cc2ccc(OC)cc2)CC3)cc1 | i |
| Cc1cccc(C)c1NC(=O)C(C)N (configuration not stated) | i |
| Cc1ccc(C)c2sc(N(C)CC(=O)N3CCC4(CC3)OCCO4)nc12 | i |
| N#Cc1ccc(OC2CCN(C(=O)c3nc4ccccc4s3)CC2)nc1 | i |
| O=C(CCCc1ccccc1)NCCc1nc(C2CC2)cc(C(F)(F)F)n1 | i |
| CS(=O)(=O)N1CCN(CCNC(=O)c2ccc3nc[nH]c3c2)CC1 | i |
| CCC(C(=O)NCCOc1ccc2c(c1)OCO2)c1ccccc1 (configuration not stated) | i |
| COc1cccc(CSc2nc(C)c(CC(=O)N3CCN(c4ccccc4Cl)CC3)c(=O)[nH]2)c1 | i |
| O=C(CN1CCN(CC(O)c2cccs2)CC1)N1CCCCCC1 (configuration not stated) | i |
| COCCNC(=O)CSc1nnc(N2CCN(c3ccccc3)CC2)s1 | i |
| Cc1nnc(NC(=O)CN2CCc3nc(NC(=O)C4CC4)sc3C2)s1 | i |
| COc1ccc(NC(=O)c2cn(Cc3ccc(NC(=O)c4ccc(Cl)cc4)cc3)cn2)cc1OC | i |
| CCCn1cc(-c2nc(-c3ccc4c(c3)OCO4)no2)c(=O)c2cc(C)ccc21 | i |
| Cc1ccc(C(=O)Nc2nc3c(s2)CCC3C(=O)Nc2ccc(-n3cnnn3)cc2)cc1 (configuration not stated) | i |
| O=C(Oc1ccc2c(c1)O/C(=C\c1ccc([N+](=O)[O-])cc1)C2=O)c1ccco1 | i |
| COc1ccc(N2C(=O)C3N=NN(Cc4nc(-c5cccc(C)c5)no4)C3C2=O)cc1OC (configuration not stated) | i |
| COc1ccc(CC(=O)NCC#CCN(C(C)C)C(C)C)cc1 | i |
| O=C(c1cc2ccccc2oc1=O)N1CCN(c2ccc3nncn3n2)CC1 | i |
| O=C(NCC1CCN(S(=O)(=O)c2cccnc2)CC1)C12CC3CC(CC(C3)C1)C2 | i |

Continuation:
mol,GIRK2 activ
Cc1cc(C(F)(F)F)nc(CCNS(=O)(=O)c2ccc(Br)s2)n1,i
COc1cccc(NC(=O)C2CCCN(c3ccc(-c4ccccc4)nn3)C2)c1 (configuration not stated),i
Cc1ccc(NC(=O)Cn2c(C)cc(C)c(-c3nc(-c4ccccc4)no3)c2=O)c(Cl)c1,i
CC(=O)NCCNC(=O)c1ccc(Cn2c(=S)[nH]c3cc4c(cc3c2=O)OCO4)cc1,i
COc1cc2nc(SCc3ccccc3F)n3nc(CCn4nc(C)cc4C)nc3c2cc1OC,i
CC(=O)c1cccc(NC(=O)c2coc(NC(=O)c3ccccc3)n2)c1,i
CCCCOc1ccc(NC(=O)NCC2CCN(C(=O)c3ccoc3)CC2)cc1,i
Cn1c(O)c(N=Nc2nc3c(c(=O)[nH]c(=O)n3C)n2CCCOc2ccccc2)c(=O)n(C)c1=O,i
CCc1ccc(NCc2cc3ccc(OC)cc3n(CC(=O)Nc3ccccc3Cl)c2=O)cc1,i
Cc1cc(C(=O)N2CC(Oc3nc4c(F)cccc4s3)C2)nn1C,i
O=C(Nc1ccc(Cl)c(Cl)c1)N1CC(c2nc(-c3ncccn3)no2)C1,i
CC(=C\C(=O)O)/C=C(\C)CC(C)CCCCC(O)C(CO)C(=O)O (configuration not stated),i
Cc1ccc2c(c1)N(C(=O)Cn1cnc3c(oc4ccccc43)c1=O)CCO2,i
Cn1ccnc1SCC1CCN(S(=O)(=O)c2ccc(C(F)(F)F)cc2)CC1,i
CCC(=O)Nc1ccc2c(c1)c(=O)n(-c1ccccc1)n2CC(=O)NC1CCCC1,i
Cc1c(CNC(=O)NC2CCCC2)sc2nc(-c3ccc(F)cc3)cn12,i
CN(C)CC[C@@H](c1ccc(Cl)cc1)c1ccccn1,i
CCCNC(=O)C(=O)NCCN1CCN(c2ccccc2)CC1,i
Cc1ccccc1-c1cc2c(=O)n(CC(=O)c3ccc4c(c3)OCO4)ccn2n1,i
O=C(Cn1cccc(S(=O)(=O)N2CCOCC2)c1=O)Nc1ccccc1,i
c1ccc2[nH]c(C3CCN(CCC4OCCO4)CC3)nc2c1,i
CCOC(=O)CNC(=O)c1cn(C)nc1S(=O)(=O)N1CCN(c2cccc(Cl)c2)CC1,i
COC(=O)C1=C(C)NC(=O)NC1c1ccc(C(C)C)cc1 (configuration not stated),i
O=C(CSCc1ccccc1)Nc1cc(C2CC2)nn1-c1nc(-c2ccccc2)cc(=O)[nH]1,i
COc1cc(C2c3cccn3CCN2S(=O)(=O)c2ccc(F)cc2F)cc(OC)c1OC (configuration not stated),i
COc1ccccc1NC(=O)c1ccc(S(=O)(=O)N(C)Cc2ccccc2)cc1,i
O=C(CSc1ccc(F)cc1)N1CCN(C(=O)C2CC2c2cccs2)CC1 (configuration not stated),i
COc1ccc(CC(C)(O)CNC(=O)c2c(C)nc3ccccn23)cc1 (configuration not stated),i
Cc1ccc(Nc2ccc(NC(=O)Nc3ccccc3Cl)cc2)nn1,i
CC(O)(CNC(=O)C(=O)Nc1ccc(F)c(Cl)c1)c1ccc2c(c1)OCO2 (configuration not stated),i
COc1ccc(CNC(=O)N(CCc2cccs2)C2CC2)cc1OC,i
CN(C)c1ccc(C2CC(c3ccc(Cl)cc3)=NN2c2ccc(C(=O)O)cc2)cc1 (configuration not stated),i
Cc1ccc(NC(=O)NCCn2ncccc2=O)c(C)c1,i
COC(=O)c1ccc(S(=O)(=O)N2CCN(S(=O)(=O)C3CC3)CC2)cc1,i
CSc1cccc2sc(NC(=O)Nc3ccccc3F)nc12,i
O=C(CCC1NC(=O)c2ccccc2NC1=O)NCCc1cnc[nH]1 (configuration not stated),i
COc1ccc(-c2noc(-c3cn(C)c4ccc(F)cc4c3=O)n2)c(OC)c1,i
CCC(C(=O)N1CC(c2nc(-c3cccs3)no2)C1)c1ccccc1 (configuration not stated),i
COc1ccc(NC(=O)C(=O)NCc2ccncc2)cc1OC,i
CC1CN(S(=O)(=O)c2ccc(C(C)(C)C)cc2)CC(C)O1 (configuration not stated),i
COc1cccc(-c2noc(-c3cc(N4CCN(c5ccccn5)CC4)nc4ccccc34)n2)c1OC,i
COc1ccc(C2c3c(oc4ccc(C)cc4c3=O)C(=O)N2CCO)cc1 (configuration not stated),i
O=C(CSCc1ccccc1)N1CCN(CC(F)(F)F)CC1,i
O=C(NCC1(c2ccc(F)cc2)CC1)C(=O)Nc1ccc(OC(F)(F)F)cc1,i
Cc1ccc(S(=O)(=O)N2CCC(C(N)=O)CC2)cc1,i
CCOc1ccc(C2NC(=O)NC(C)=C2C(=O)Nc2ccc(C)cc2)cc1OC (configuration not stated),i
COC(=O)C1=CO[C@@H](O[C@@H]2O[C@H](CO)[C@@H](O)[C@H](O)[C@H]2O)[C@H]2[C@@H]1C=CC21C=C([C@H](C)OC(=O)/C=C/c2ccc(O)cc2)C(=O)O1 (some centres not stated),i
O=C1CCCN1CCCN1COc2ccc3c(=O)c(-c4ccc(Cl)cc4)coc3c2C1,i
Cc1oc(-c2ccccc2)nc1Cn1nnc(C(=O)Nc2ccc(C(F)(F)F)cc2)c1N,i
COC(=O)c1sc2cccc(F)c2c1S(=O)(=O)NC(C)c1ccccc1 (configuration not stated),i
Cc1cc(CN2CCC(CNC(=O)/C=C/c3cccs3)CC2)c(C)o1,i
Cn1cccc1CN(Cc1cccs1)C(=O)c1ccc(Br)o1,i
CN(C)CC1CSCCCN1C(=O)c1cc(=O)c2ccccc2o1 (configuration not stated),i
S=c1nc[nH]c2nc[nH]c12,i
O=C(CN1N=NC2C(=O)N(c3ccc(Br)cc3)C(=O)C21)Nc1ccc(F)c(Cl)c1 (configuration not stated),i
CN(C)C(=O)Cn1nc(C(=O)N2CCOCC2)cc1-c1cccs1,i
O=C(NCc1ccc(C(=O)c2cccs2)s1)Nc1ccccc1Cl,i
CN(CC(=O)NCc1nc(-c2ccccc2)no1)c1nc2c(C(F)(F)F)cccc2s1,i
COC(=O)C1=C(C)Nc2nc(SC)nn2C1c1ccc(F)cc1 (configuration not stated),i
O=C1C[C@H](c2ccccc2)Oc2c(Cc3ccccc3O)c(O)c(Cc3ccccc3O)c(O)c21,i
CC(=O)Nc1ccc(NC(=O)Cn2cccc(-c3nc(-c4ccccc4)no3)c2=O)cc1,i
COc1ccc(-c2noc(C3CC(=O)N(c4ccc(C)c(C)c4)C3)n2)c(OC)c1 (configuration not stated),i
